VACV mCherry inh: inhibitors of vaccinia virus infection (mCherry reporter signal). Vaccinia virus mCherry reporter infection, fluorescence; about a quarter of the inactives have no number. Potency, µM (titrated, usually from 36.5 µM), for the others: at the highest dose activity change, negative = inhibition, most hits filed as inhibitors. actives 0.63% (n = 310,000). AID 720579; active = well fitted inhibition curve with a large enough effect; inconclusive = small, poorly fitted or top-dose-only effect; inactive = no such curve, though single readings can be large or run the other way; tested in A549 cells; also: nearly all actives have a fitted effect of over 35% in size; inactives centre near -10
VACV Venus inh: vaccinia inhibition (Venus reporter); Vaccinia virus Venus reporter expression, fluorescence; Potency, µM (doses to about 36.5 µM), for inactives: top-dose activity change, negative = inhibition, usual class: inhibitors; actives 0.46% (n = 330,000); active means well fitted inhibition curve with a large enough effect; inconclusive means small, poorly fitted or top-dose-only effect; inactive means no such curve, though single readings can be large or run the other way; tested in A549 cells; also: nearly all actives have a fitted effect of over 30% in size; inactives centre near -10
The depositor's hits bear a star; i = inactive; ? = inconclusive; / = no result given; & = joins results of further samples; [ ] = remark or other dose. % is scaled to controls: 0 for no effect and ±100 for the full control effect; potency is read from the fitted curve at half-maximal effect.

SMILES | VACV mCherry inh | VACV Venus inh
CN1CCc2nc3ccccc3c(C(=O)OCC(=O)N(CCC#N)c3ccccc3)c2C1 | i | -6%
O=C(COC(=O)c1cc(=O)c2ccccc2o1)Nc1cc(Cl)ccc1Cl | -3% | -9%
O=C(N/N=C/c1ccoc1)c1ccc(Cl)cc1Cl | -16% | 7%
CCOC(=O)c1cn(CC)c2cc(N3CCSCC3)c(F)cc2c1=O | -23% | -14%
Cc1ccc(-c2csc3ncnc(N4CCN(C(=O)c5ccccc5)CC4)c23)cc1 | -5%[1.46 µM] | ?
COc1cc(C(=O)Nc2cc(Cl)ccc2-n2cncn2)ccc1OC(F)F | -3% | 1%
COc1ccc(CCCc2nnc(SCC(=O)Nc3cc(F)ccc3C)o2)cc1 | -13% | 0%
CN1CCN(NC(=S)NC(C)(C)CC(C)(C)C)CC1 | -19% | -8%
COCCN(Cc1cn(C)nc1-c1ccccc1F)C(C)C | -2% | -1%
Cc1cccc(NS(=O)(=O)c2ccc3c(c2)n(C)c(=O)n3C)c1C | -22% | -22%
CCC(=O)N1CCN(c2ccccc2NC(=O)c2ccc(-c3cccc([N+](=O)[O-])c3)o2)CC1 | i | 12%
O=C(COC(=O)C1CCN(c2ccc(C(F)(F)F)cn2)CC1)NCc1cccc(Cl)c1 | -10% | 3%
Cc1ccc(-n2ncc3c(N4CCC(C)CC4)ncnc32)cc1C | -3% | -9%
CCOc1ccccc1NC(=O)CSc1nc(=O)[nH]c2c1CCCC2 | -7%[7.34 µM] | -8%[7.34 µM]
C[C@H]1CCC(=O)N([C@H](CN=[N+]=[N-])Cc2ccccc2)CC1 | -18% | -5%&-7%
N#C/C(=C\c1cc([N+](=O)[O-])ccc1Cl)C(N)=O | -1% | -12%
O=C(NCc1ccccc1)c1cccc(COc2ccc(Cl)cc2)c1 | -5% | -18%
C=Cc1ccc(Cn2c(C)c(C(=O)NCc3cccc(C(F)(F)F)c3)sc2=O)cc1 | i | 6%
CN(c1ccc(C(=O)Nc2ccccc2C(F)(F)F)cc1)S(C)(=O)=O | / | 3%
CC1(C)CC(=O)C2=C(C1)c1c(ccc3ccccc13)NC2c1ccco1 (configuration not stated) | ? | ?
Cc1ccc(NC(=O)c2ccc(NCCN)c([N+](=O)[O-])c2)cc1 | -13% | -19%
CCc1ccccc1Nc1nc(N)nc(COC(=O)CCS(=O)(=O)c2ccccc2)n1 | -25% | -28%
O=C(c1ccc2c(c1)N(Cc1ccc(F)cc1)C(=O)c1ccccc1S2(=O)=O)N1CCCC1 | 1% | 2%
CC(=O)C1CCC2C3CCC4CC(O)CCC4(C)C3CCC12C (configuration not stated) | -3% | -18%
CCOC(=O)c1ccc2c(c1)nc(-c1ccccn1)n2CC | -3% | -2%
(cont.)
SMILES | VACV mCherry inh | VACV Venus inh
COc1ccc(OC)c(NC(=O)CCCN2C(=S)NC(C)(C)CC2C)c1 (configuration not stated) | i | -13%
Cn1cc([N+](=O)[O-])c(C(=O)N2CCN(Cc3ccc4c(c3)OCO4)CC2)n1 | i | -12%
COc1ccc(-c2csc(Nc3cccnc3)n2)cc1 | ? | -29%
CCn1cc(C(c2ccccc2)C(C(C)=O)[N+](=O)[O-])c2ccccc21 (configuration not stated) | -11%[7.34 µM] | 5%[7.34 µM]
COc1ccc(NC(=O)c2c(NC(=O)CNCc3ccco3)sc3c2CCC3)c(OC)c1 | / | -21%
O=C(CCNS(=O)(=O)c1ccc(OC(F)(F)F)cc1)NC1CC1 | i | -2%
O=C(CN(Cc1ccccc1)C(=O)CNS(=O)(=O)c1ccccc1)NCc1ccco1 | -7% | -1%
CC(=O)c1cccc(N(C(=O)Cn2nnc3ccccc32)C(C(=O)NCc2ccccc2)c2ccc(F)cc2)c1 (configuration not stated) | -23% | -18%
COc1cc(/C=C2/NC(=O)NC2=O)ccc1OCC(=O)Nc1ccc(F)cc1 | -3% | 11%
Cc1ccccc1C(=O)N1CCc2c(cnc(C)c2CNC(=O)CN2CCCCC2)C1 | -19% | -4%
CC1=C(O)C(=O)C(c2c(C)cc(C)c(Br)c2C)=C(O)C1=O | -19% | -22%
C=CCc1ccc(OCCOc2ccc(/C=N/n3cnnc3)cc2OCC)c(OC)c1 | -21% | -12%
CS(=O)(=O)N1CCN(C/C=C/c2ccccc2)CC1 | -11% | -9%
CC[C@]12c3[nH]c4ccc(OC)cc4c3CCN1C(=O)C(CC(=O)NC/C=C(\C)CCC=C(C)C)C[C@@H]2C(=O)N1CCN(C(=O)c2ccco2)CC1 (some centres not stated) | -20% | ?
COc1cccc(-n2c(SCC(=O)Nc3nccs3)nnc2-c2ccoc2C)c1 | -6% | -14%
COc1ccc(CNC(=O)C(c2ccncc2)N(C(=O)Cc2cccs2)c2ccccc2C)cc1 (configuration not stated) | i | -2%
COc1ccc([C@H]2C[C@@H](O)[C@H](n3cc(C4CC4)nn3)CN2C(=O)c2cccs2)cc1 | -12% | -25%
CCCCc1nnc(SCC(=O)NC2CCCCC2)n1C | -13% | -6%
COc1cccc(/C=N/NC(=O)CCc2c(C)n[nH]c2C)c1O | -18% | 1%
Cc1nc2cc3c(cc2s1)OCO3 | -3% | -17%
CCOc1ccc(NC(=O)c2c(NCc3cc(OC)c(OC)cc3OC)sc3c2CCCC3)cc1 | -17% | -10%
Cc1cc(N(C)Cc2ccccc2)n2nc(-c3ccc(C(C)(C)C)cc3)nc2n1 | -26% | -19%
COC(=O)c1ccc(-n2cnc(Cl)n2)c(F)c1 | -5% | -5%
CSCCOC(=O)C1=C(C)NC(=O)CC1c1ccccc1Cl (configuration not stated) | / | -23%
CCOc1ccccc1C1C(C(=O)Nc2ccccc2)=C(C)Nc2nc(SCC(=O)c3ccc(C)cc3)nn21 (configuration not stated) | -30% | -23%
(listing goes on)
SMILES | VACV mCherry inh | VACV Venus inh
CSc1cccc(NC(=S)N(CCCN2CCCC2)Cc2cccn2Cc2ccc(Cl)cc2)c1 | ? | ?
c1ccc2c(c1)N1CCN=C1N2CCN1CCCCC1 | -9% | -6%
CCCOc1ccc2cc(C(=O)NCc3ccccc3)c(=O)oc2c1 | -3% | 19%
O=C(NCC1CCC2(CCN(Cc3cccc4ncccc34)CC2)O1)c1ccccc1 (configuration not stated) | -3% | -7%
O=C1NC[C@H](CC2CCCCC2)N(CCC23CC4CC(CC(C4)C2)C3)C1=O | -11% | -15%
COc1ccc(N(C(=O)/C=C/c2ccccc2)C2=CC3CCC(C2)N3C)cc1 (configuration not stated) | -7% | -14%
CC1(C)CC(=O)c2c(nn(-c3ccccc3)c2N)C1 | i | -6%
CCOc1ccc(-c2ccc(CO)o2)cc1N | -19% | -6%
Cc1cc(=O)n2nc(N3CCC(C(=O)NCc4cccc(Cl)c4)CC3)sc2n1 | -5%[7.34 µM] | -8%[7.34 µM]
O=S(=O)(/C=C/C=C/S(=O)(=O)c1ccccc1)c1ccccc1 | ? | 14µM*
CNC(=O)COc1ccc(Nc2nnc(-c3ccc(C)c(S(=O)(=O)NC(C)(C)C)c3)c3ccccc23)cc1 | -29% | -26%
COc1ccc2c(c1)OC(C)CN(CCC(=O)NCC1OCCc3ccccc31)C2 (configuration not stated) | -15% | -7%
N#Cc1c(C(F)(F)F)cc(-c2cccs2)nc1SCC(=O)Nc1cccc(C(F)(F)F)c1 | ? | -25%
CCOc1cc(/C=N/NC(=O)c2cccs2)ccc1OC(=O)N1CCOCC1 | -8% | -2%
CCCNC(=O)N1[C@H]2CC[C@@H]1C(C(=O)OC)=C(c1cccc(OC)c1OC)C2 | i | -13%
Cc1ccc(CNC(=O)c2cnc(N3CCCC3)nc2C)cc1 | 10% | 1%
CCC(C)c1ccc(-n2c(=O)c3ccccc3n3c(=S)[nH]nc23)cc1 (configuration not stated) | -14% | 3%
Cc1c(Cl)c(C(F)(F)F)nn1CC(=O)NN | -20% | -12%
O=C(Nc1cnn(Cc2c(Cl)cccc2Cl)c1)C(c1ccccc1)c1ccccc1 | / | ?
C[C@H](CO)N1C[C@H](C)[C@H](CN(C)C(=O)c2ccccc2)OCc2cnnn2CCCC1=O | -10% | -14%
O=C(CSc1ccccn1)N1CCCC(Nc2ccc(F)c(F)c2)C1 (configuration not stated) | i | -17%
Cc1sc(NC(=O)c2ccccc2)c(C#N)c1-c1ccccc1 | -22% | -14%
COc1ccccc1N1CC(C(=O)Nc2nnc(SCC(=O)NCC3CCCO3)s2)CC1=O (configuration not stated) | i | -4%
CC12CCC(c3n[nH]c(=S)nc31)C2(C)C (configuration not stated) | -9% | 0%
COc1ccc(OCC(=O)NCC(c2cccs2)N2CCOCC2)cc1 (configuration not stated) | -10% | -11%

20 of the compounds above, in CSV form.
mol,VACV mCherry inh,VACV Venus inh
CSc1cccc(NC(=S)N(CCCN2CCCC2)Cc2cccn2Cc2ccc(Cl)cc2)c1,?,?
c1ccc2c(c1)N1CCN=C1N2CCN1CCCCC1,-9%,-6%
CCCOc1ccc2cc(C(=O)NCc3ccccc3)c(=O)oc2c1,-3%,19%
O=C(NCC1CCC2(CCN(Cc3cccc4ncccc34)CC2)O1)c1ccccc1 (configuration not stated),-3%,-7%
O=C1NC[C@H](CC2CCCCC2)N(CCC23CC4CC(CC(C4)C2)C3)C1=O,-11%,-15%
COc1ccc(N(C(=O)/C=C/c2ccccc2)C2=CC3CCC(C2)N3C)cc1 (configuration not stated),-7%,-14%
CC1(C)CC(=O)c2c(nn(-c3ccccc3)c2N)C1,i,-6%
CCOc1ccc(-c2ccc(CO)o2)cc1N,-19%,-6%
Cc1cc(=O)n2nc(N3CCC(C(=O)NCc4cccc(Cl)c4)CC3)sc2n1,-5%[7.34 µM],-8%[7.34 µM]
O=S(=O)(/C=C/C=C/S(=O)(=O)c1ccccc1)c1ccccc1,?,14µM*
CNC(=O)COc1ccc(Nc2nnc(-c3ccc(C)c(S(=O)(=O)NC(C)(C)C)c3)c3ccccc23)cc1,-29%,-26%
COc1ccc2c(c1)OC(C)CN(CCC(=O)NCC1OCCc3ccccc31)C2 (configuration not stated),-15%,-7%
N#Cc1c(C(F)(F)F)cc(-c2cccs2)nc1SCC(=O)Nc1cccc(C(F)(F)F)c1,?,-25%
CCOc1cc(/C=N/NC(=O)c2cccs2)ccc1OC(=O)N1CCOCC1,-8%,-2%
CCCNC(=O)N1[C@H]2CC[C@@H]1C(C(=O)OC)=C(c1cccc(OC)c1OC)C2,i,-13%
Cc1ccc(CNC(=O)c2cnc(N3CCCC3)nc2C)cc1,10%,1%
CCC(C)c1ccc(-n2c(=O)c3ccccc3n3c(=S)[nH]nc23)cc1 (configuration not stated),-14%,3%
Cc1c(Cl)c(C(F)(F)F)nn1CC(=O)NN,-20%,-12%
O=C(Nc1cnn(Cc2c(Cl)cccc2Cl)c1)C(c1ccccc1)c1ccccc1,/,?
C[C@H](CO)N1C[C@H](C)[C@H](CN(C)C(=O)c2ccccc2)OCc2cnnn2CCCC1=O,-10%,-14%

Further records.
SMILES | VACV mCherry inh | VACV Venus inh
O=C(Cc1ccccc1)NCC(=O)Nc1cccc(Cl)c1 | -10% | -4%
O=C1C2C3C=CC(C3)C2C(=O)N1c1ccc(S(=O)(=O)Nc2nccs2)cc1 (configuration not stated) | -22% | -18%
CS(=O)(=O)N1CCN(c2cnn(-c3ccccc3)c(=O)c2Cl)CC1 | i | 2%
O=C(Nc1ccc2c(c1)OCCO2)C(c1cc2ccccc2o1)N1CCN(c2ccc(C(F)(F)F)cn2)CC1 (configuration not stated) | i | -12%
CCCCN1CCc2[nH]c(=S)[nH]c(=O)c2C1 | i | -9%
C[C@@H]1CN([C@H](C)CO)C(=O)c2cccc(NC(=O)c3ccncc3)c2O[C@@H]1CN(C)Cc1ccc(C(=O)O)cc1 | i | -12%
Cc1cc(=O)oc2cc(OCC(=O)Nc3nnc(CC(C)C)s3)ccc12 | i | -4%
CCOc1ccc(C(=O)Nc2nnc(SCc3cc(=O)n4ccccc4n3)s2)cc1 | -12% | -16%
Cc1ccc(-c2nnn(CC(=O)N(CCO)C(C(=O)NC3CCCCC3)c3ccncc3)n2)o1 (configuration not stated) | 13% | -3%
CCCn1nc(C(=O)Nc2cccc(C(=O)OC)c2)c2ccccc2c1=O | -10% | -12%
COc1ccc(C2CC(=O)c3cc(-c4nc(-c5cccc([N+](=O)[O-])c5)cs4)c(=O)n(-c4cccc(C)c4)c3C2)cc1 (configuration not stated) | -10% | -9%
CCC(CC)C(=O)Nc1cc(C)cc(C)c1 | -24% | -14%
O=C(CN1C(=O)c2ccccc2S1(=O)=O)Nc1ccc([N+](=O)[O-])cc1 | i | -12%
CCOC(=O)c1nnn(-c2nonc2N)c1CN(C)C1CCCCC1 | / | -5%
CCOC(=O)C1CCCN(S(=O)(=O)c2ccc3c(c2)CCCN3C(C)=O)C1 (configuration not stated) | 4% | -3%
Cc1ccccc1S(=O)(=O)N1CCN(C)CC1 | -22% | -14%
CCC(=O)N1CCc2cc(Br)cc(S(=O)(=O)N3CCCC(C(=O)NCc4ccccc4)C3)c21 (configuration not stated) | -2% | -12%
COc1ccccc1C=NN1CCCCCC1 | -7% | 4%
CC1=CC(C)C2C(=O)N(c3ccccc3)C(=O)C2C1 (configuration not stated) | -9% | -9%
Cc1ccc(-c2cc(-c3coc4ccccc4c3=O)c3c(n2)-c2ccccc2OC3)cc1 | -5% | 0%
C(=N\N1CCN(Cc2ccccc2)CC1)/c1cccs1 | i | -6%
CN(Cc1ccc(Cl)c(Cl)c1)C(C(=O)NCc1ccccc1)c1ccc(C(F)(F)F)cc1 (configuration not stated) | 11µM* | ?
Cc1cc(C(F)F)n2nc(C(=O)Nc3cc(Cl)ccc3C)nc2n1 | -3% | -6%
Cc1cc(C)n2nc(C(=O)OCC(=O)N(CC(C)C)CC(C)C)nc2n1 | i | -1%

Assay outcomes as filed in PubChem.
